Screening data (PubChem)
UCH37 inh – human UCH37 deubiquitinating enzyme inhibition; Q9Y5K5; purified proteasome/UCH37, Ub-AMC cleavage fluorescence; inhibition, % (test concentration not listed); 330,000 tested, 0.33% active; AID 588478;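 active = mean of two replicates above 20%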;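 note: 0% = compound-free wells with enzyme and 100% = wells lacking proteasome; stock transfer was 100 nL into about 20 µL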
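Material: Human UCH37 enzyme supplied as purified proteasome complex | Schedule: 30 min preincubation with enzyme, 25 min cleavage at room temperature | Detection: AMC fluorescence 355/460 nm | Measure: % inhibition of Ub-AMC cleavage fluorescence | Controls: Wells without proteasome as full block, compound-free enzyme plus substrate as uninhibited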
HNF4A DNA FP – change in binding of human HNF4 alpha to DNA; 360,000 tested, 0.3% active; activity change, % at 10 µM; AID 1224865; HNF4a-FITC DNA binding, fluorescence polarization, 1 h; P41235; in the data active = activity change above about 30%, passing the limit was not always enough;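 note: controls were the assay level and a saturating level of protein; the project sought stronger binding though the title names inhibitors; some compounds called inactive have numbers as strong as hits; positive values seem to mean higher polarization but the record does not say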
FGF22 binding – shifts melting point of recombinant human FGF22; calls only at 9.99 µM; recombinant FGF22 thermal shift, SYPRO orange fluorescence; percent of sucrose octasulfate shift, DMSO zero; AID 651658; Q9HCT0; 340,000 tested, 1.5% active;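 active = melting point raised past a set limit in the mean and every replicate; three in four hits are not shown here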
Target sequence (Q9HCT0 whole entry, looked up): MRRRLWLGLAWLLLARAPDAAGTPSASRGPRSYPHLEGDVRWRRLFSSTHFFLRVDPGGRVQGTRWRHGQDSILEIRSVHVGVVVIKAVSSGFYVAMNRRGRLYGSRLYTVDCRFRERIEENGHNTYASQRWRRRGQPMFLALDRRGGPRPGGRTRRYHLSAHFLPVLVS
Ecoli growth – blocks Escherichia coli growth. OD600, 23 h; hits give low values. OD600 absorbance (test concentration not listed). 330,000 tested, 0.21% active. AID 1053175;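 active = OD600 absorbance below the run mean of sample wells minus 3.6 SD, in any replicate, cut at about 0.56 in these data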;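 note: stock transfer was 300 nL into about 60 µL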
B2AR ag – agonists of human beta-2 adrenergic receptor inducing internalization; 340,000 tested, 0.43% active; response, % (test concentration not listed); P07550; Am2.2-beta2AR cells, FAP receptor internalization, flow cytometry; reference of the scale not given here; AID 504454;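 active = response above a set limit, near 3 SD of response in nonfluorescent compounds, cut at about 42% in these data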;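 note: stock transfer was 100 nL into about 11 µL; a reference agonist was the positive control; negative values mostly stem from fluorescent compounds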
Target sequence (P07550 whole entry, looked up): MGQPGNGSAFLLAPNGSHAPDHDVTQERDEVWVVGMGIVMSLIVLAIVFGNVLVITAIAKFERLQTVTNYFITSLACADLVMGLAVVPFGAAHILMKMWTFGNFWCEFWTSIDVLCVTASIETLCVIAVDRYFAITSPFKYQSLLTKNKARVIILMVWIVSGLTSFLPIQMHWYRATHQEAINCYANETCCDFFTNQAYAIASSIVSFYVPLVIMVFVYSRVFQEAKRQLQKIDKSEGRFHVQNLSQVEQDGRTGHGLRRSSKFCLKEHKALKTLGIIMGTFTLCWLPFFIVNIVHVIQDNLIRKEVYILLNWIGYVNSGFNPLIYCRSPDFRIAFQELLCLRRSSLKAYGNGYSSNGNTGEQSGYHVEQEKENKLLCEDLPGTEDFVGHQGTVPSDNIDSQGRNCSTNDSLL
ALR H2O2 inh – inhibitors of human sulfhydryl oxidase ALR | purified ALR, DTT oxidation, H2O2 HRP-luminol luminescence | 290,000 tested, 3.8% active | inhibition, % (no concentration beside the values);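 active = mean and each replicate at 75% or more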;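 note: stock transfer was 7.5 nL into about 7.5 µL; 0% = neutral wells and 100% = wells with inactivated enzyme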
Target sequence (P55789 whole entry, looked up): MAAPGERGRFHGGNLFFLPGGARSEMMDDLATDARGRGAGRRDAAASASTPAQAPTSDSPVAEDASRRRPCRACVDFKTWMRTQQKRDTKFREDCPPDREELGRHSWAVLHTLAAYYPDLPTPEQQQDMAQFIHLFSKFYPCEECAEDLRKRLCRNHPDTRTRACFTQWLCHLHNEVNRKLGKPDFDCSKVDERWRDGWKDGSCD
rRNA inh HTS – inhibits bacterial ribosomal RNA function over humanized ribosomes | E. coli WT GFP vs humanized-ribosome RFP mutants, fluorescence, 24 h; hits give low values; DMSO median 0, no signal -100 | GFP signal change (wild-type ribosome), % (no concentration beside the values) | 350,000 tested, 1.6% active;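 active = significant combined selectivity score with lowered wild-type GFP, culture density cut under 30%, mutant RFP and density less affected; inactive = any of these conditions unmet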; note: one replicate is shown; some compounds called inactive have numbers as strong as hits
rRNA inh HTS OD600 – also measured in rRNA inh HTS; calls as there; OD600 change, %; measured here: OD600 growth;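 optical density of the mix in the first replicate; 0 = DMSO median and -100 = no signal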
rRNA inh HTS RFP – also measured in rRNA inh HTS; calls as there; RFP signal change, %; measured here: RFP humanized mutant strains;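 first replicate; 0 = DMSO median and -100 = no signal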
The depositor's hits bear a star; i = inactive; . = not tested or not shown; & = joins results of further samples. A portion of the library. The share of hits here may be higher or lower than overall.

1	CC(=O)Nc1cccc(NC(=O)CSc2nnnn2C(C)C)c1
2	Cc1cccc(C)c1NC(=S)N/N=C1\CC2CC=CC12 (stereo not drawn)
3	CCc1nc2ccc(C(=O)N3CCN(c4ccccc4F)CC3)cc2nc1CC
4	O=C(O)C1CCCCC1C(=O)NCCc1ccccc1 (stereo not drawn)
5	c1ccc(-c2nc(C3CCCCC3)c3ccccc3n2)cc1

compound no.,1,2,3,4,5
ALR H2O2 inh,-9,19,-9,-13,-1
rRNA inh HTS OD600,.,7,6,.,1
rRNA inh HTS,.,15,3,.,3
rRNA inh HTS RFP,.,0.2,-2.2,.,0.4
HNF4A DNA FP,-0.3,2.6,1.4,-0.8,-1.1
FGF22 binding,.,.,i,.,i
UCH37 inh,1.8,.,1.7,2.3,5.1
Ecoli growth,0.72,.,0.67,0.72,0.71
B2AR ag,7,14,-6,-2,-2

6	CCOc1cccc(Nc2ccc([N+](=O)[O-])cn2)c1
7	Cc1cc(=O)n2c3ccccc3n(CC(O)CN3CCN(Cc4ccccc4)CC3)c2c1C#N (stereo not drawn)
8	O=C(Nc1ccccc1)c1cc(C2CCCN(C(=O)CCc3ccccc3)C2)on1 (stereo not drawn)
9	CC(=O)N1CCN(Cc2nc3cc(NC(=O)c4ccc(F)cc4)ccc3n2C)CC1
10	Cc1ccc(CNC(=O)C2CCN(S(=O)(=O)c3cnc[nH]3)CC2)cc1

compound no.,6,7,8,9,10
ALR H2O2 inh,2,-9,.,-47,0
rRNA inh HTS OD600,-5,-9,-11,7,.
rRNA inh HTS,-1,-12,-10,4,.
rRNA inh HTS RFP,14,-5.5,-0.3,-2.5,.
HNF4A DNA FP,4.8,2.7,-6.6,1.5,-1.2
FGF22 binding,i,i,i,i,.
UCH37 inh,2.2,-21,.,0.3,-0.7
Ecoli growth,0.7,0.67,.,0.67,0.69
B2AR ag,6,11,.,-7,2

One compound at a time (already shown). Values in the order: ALR H2O2 inh | rRNA inh HTS OD600 | rRNA inh HTS | rRNA inh HTS RFP | HNF4A DNA FP | FGF22 binding | UCH37 inh | Ecoli growth | B2AR ag
O=C(Nc1ccccc1)c1cc(C2CCCN(C(=O)CCc3ccccc3)C2)on1 (stereo not drawn) in the list: . | -11 | -10 | -0.3 | -6.6 | i | . | . | .
CCOc1cccc(Nc2ccc([N+](=O)[O-])cn2)c1 in the list: 2 | -5 | -1 | 14 | 4.8 | i | 2.2 | 0.7 | 6
Cc1cc(=O)n2c3ccccc3n(CC(O)CN3CCN(Cc4ccccc4)CC3)c2c1C#N (stereo not drawn) in the list: -9 | -9 | -12 | -5.5 | 2.7 | i | -21 | 0.67 | 11
Cc1ccc(CNC(=O)C2CCN(S(=O)(=O)c3cnc[nH]3)CC2)cc1 in the list: 0 | . | . | . | -1.2 | . | -0.7 | 0.69 | 2

Reprinted at random: 2 entries already listed
7	Cc1cc(=O)n2c3ccccc3n(CC(O)CN3CCN(Cc4ccccc4)CC3)c2c1C#N (stereo not drawn)
8	O=C(Nc1ccccc1)c1cc(C2CCCN(C(=O)CCc3ccccc3)C2)on1 (stereo not drawn)

compound no.,7,8
ALR H2O2 inh,-9,.
rRNA inh HTS OD600,-9,-11
rRNA inh HTS,-12,-10
rRNA inh HTS RFP,-5.5,-0.3
HNF4A DNA FP,2.7,-6.6
FGF22 binding,i,i
UCH37 inh,-21,.
Ecoli growth,0.67,.
B2AR ag,11,.

(more compounds)
11	CCOC(=O)C1(Cc2cccc(OC)c2)CCN(CC=C(C)C)CC1
12	CCN=c1scc(-c2ccco2)n1/N=C/c1ccc(OC)c(O)c1
13	Cc1c(Nc2nc3ccccc3nc2N2CCN(c3ccccc3)CC2)c(=O)n(-c2ccccc2)n1C
14	CCC1(c2ccc(F)cc2)NC(=O)NC1=O (stereo not drawn)
15	CC1(C)Cc2c(sc3nc(C4CCCCC4)n(N)c(=O)c23)CO1

compound no.,11,12,13,14,15
ALR H2O2 inh,.,44,19,0,-24
rRNA inh HTS OD600,0,9,.,9,-1
rRNA inh HTS,0,4,.,6,9
rRNA inh HTS RFP,-7.2,3.7,.,-1.9,-0.9
HNF4A DNA FP,7.5,5.2,3.0,3.3,-4.7
FGF22 binding,i,i,.,i,i
UCH37 inh,1.3,.,-3.0,1.5,1.4
Ecoli growth,0.65,.,0.72,0.7,0.71
B2AR ag,-9,-1,11,-3,-13

16	O=C1C(SC(F)(F)C(F)F)=C(C(F)(F)F)OC2C3C=CC(C3)C12 (stereo not drawn)
17	CCOc1cnn(Cc2ccccc2)c(=O)c1SCc1ccccc1
18	CSc1nc2c(c(=O)[nH]1)CCCC2
19	Cc1cc(Cl)ccc1NNC(N)=S
20	CCCCn1c(N)c(N(CC(C)C)C(=O)c2cccc(S(=O)(=O)N(C)c3ccccc3)c2)c(=O)[nH]c1=O

compound no.,16,17,18,19,20
ALR H2O2 inh,-12,-3,-5,64,-23
rRNA inh HTS OD600,.,.,.,-9,2
rRNA inh HTS,.,.,.,6,2
rRNA inh HTS RFP,.,.,.,4.6,0.4
HNF4A DNA FP,1.6,3.5,-2.3,-2.6,0.5
FGF22 binding,.,.,.,i,i
UCH37 inh,4.4,4.9,2.0,1.2,-2.3
Ecoli growth,0.76,0.69,0.71,0.65,0.64
B2AR ag,-4,1,2,2,1

21	CCOC(=O)N1CCN(C(=O)CN(C2CCCCC2)S(=O)(=O)c2ccc(C)cc2)CC1
22	COCCOc1cc(NC(=O)CS(=O)(=O)CC(=O)N(C)C)c(Cl)cc1Cl
23	CCS(=O)(=O)N1Cc2ccccc2CC1C(=O)N(C)Cc1ccc(OC)cc1OC (stereo not drawn)
24	CCOC(=O)c1c(C)[nH]c(C(=O)OCC(O)=C(C#N)c2nc3ccccc3[nH]2)c1C
25	CCOC(=O)N1CCN(C(=O)C2CCN(C(=O)c3cc4sccc4n3CC)CC2)CC1

compound no.,21,22,23,24,25
ALR H2O2 inh,-3,-11,-6,.,-2
rRNA inh HTS OD600,.,-8,.,8,-4
rRNA inh HTS,.,13,.,-10,-11
rRNA inh HTS RFP,.,-0.9,.,2.3,-2.2
HNF4A DNA FP,2.0,2.5,-1.4,19,1.4
FGF22 binding,.,.,i,i,i
UCH37 inh,-1.2,2.3,-1.0,-1.3&-2.0,3.0
Ecoli growth,0.75,0.71,0.71,0.68&0.75,0.76
B2AR ag,-2,1,-3,9,-5

Five structures already listed, sorted by heavy-atom count, falling:
22	COCCOc1cc(NC(=O)CS(=O)(=O)CC(=O)N(C)C)c(Cl)cc1Cl
11	CCOC(=O)C1(Cc2cccc(OC)c2)CCN(CC=C(C)C)CC1
5	c1ccc(-c2nc(C3CCCCC3)c3ccccc3n2)cc1
14	CCC1(c2ccc(F)cc2)NC(=O)NC1=O (stereo not drawn)
19	Cc1cc(Cl)ccc1NNC(N)=S

compound no.,22,11,5,14,19
ALR H2O2 inh,-11,.,-1,0,64
rRNA inh HTS OD600,-8,0,1,9,-9
rRNA inh HTS,13,0,3,6,6
rRNA inh HTS RFP,-0.9,-7.2,0.4,-1.9,4.6
HNF4A DNA FP,2.5,7.5,-1.1,3.3,-2.6
FGF22 binding,.,i,i,i,i
UCH37 inh,2.3,1.3,5.1,1.5,1.2
Ecoli growth,0.71,0.65,0.71,0.7,0.65
B2AR ag,1,-9,-2,-3,2

The listing continues.
26	CCCOC(=O)CCCCCCCCC(O)CN1CCCCC1 (stereo not drawn)
27	CC1CCN(Cc2nnnn2CCCC(=O)NCCN2CCOCC2)CC1
28	CN(c1nc(-c2ccc(Br)cc2)cs1)C1CCS(=O)(=O)C1 (stereo not drawn)
29	O=c1[nH]c2ccc(S(=O)(=O)NCc3ccccn3)cc2s1
30	CC(C)CCN(C(=O)Nc1ccccc1)C(C)c1cccs1 (stereo not drawn)

compound no.,26,27,28,29,30
ALR H2O2 inh,-30,-5,2,-10,1
rRNA inh HTS OD600,0,.,6,.,.
rRNA inh HTS,-3,.,16,.,.
rRNA inh HTS RFP,2.2,.,3.5,.,.
HNF4A DNA FP,1.8,3.7,0.1,-1.4,-1.1
FGF22 binding,i,i,i,.,.
UCH37 inh,-0.9,3.1,0.8,-0.4,0.5
Ecoli growth,0.68,0.68,0.68,0.69,0.66
B2AR ag,7,15,-11,-4,-3

31	O=C(CSc1nnc(NC(=O)c2c(F)cccc2F)s1)NCc1ccccc1
32	Cc1ccc(C)c(NC(=O)CSc2nccn2Cc2ccco2)c1
33	COc1cc(OC)c(C(=O)CCC(=O)O)cc1OC
34	Cc1cccc(S(=O)(=O)NC(=O)C2(C)CCN2C(=O)C2(c3ccc(Cl)cc3)CC2)c1 (stereo not drawn)

compound no.,31,32,33,34
ALR H2O2 inh,-1,25,-14,.
rRNA inh HTS OD600,3,-4,.,5
rRNA inh HTS,-8,3,.,1
rRNA inh HTS RFP,0.8,2.3,.,3.2
HNF4A DNA FP,-4.2,0.4,3.9,-2.5
FGF22 binding,i,i,.,i
UCH37 inh,-2.1,-1.4,1.0,.
Ecoli growth,0.71,0.63,0.59,.
B2AR ag,-1,-3,-1,.
